Menin-MLL FL inh – displaces fluorescein MLL peptide from human menin | Fluorescence polarization, fluorescein-MLL peptide displacement from menin | FP activity change, % at 61.4 µM | 290,000 tested, under 10 active; inconclusive = falling polarisation curve, or a change in total fluorescence; inactive = total fluorescence flat and polarisation flat or rising; no compound was filed as active; the % refers to the polarisation; negative = inhibition;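 note: % of control where 0% means no effect; inhibitors lower the polarisation; unlabelled MLL peptide was the positive control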
gsp ag – agonists of gsp mutant (McCune-Albright syndrome) | gsp mutant cells, cAMP HTRF, 30 min; control for the full effect not named in the record | Potency, µM (titrated, usually from 76.9 µM), for inactives: at the highest dose activation (cAMP increase), most hits filed as activators | 340,000 tested, 0.13% active; active = well fitted activation curve with a large enough effect; inconclusive = small, poorly fitted or top-dose-only effect, or another doubt; inactive = no such curve, though single readings can be large or run the other way; cell line not stated here;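 note: phosphodiesterase inhibitor Ro 20-1724 added with compounds to block cAMP breakdown; potency is the fitted concentration of half-maximal effect; nearly all actives have a fitted effect of over 60% in size; about a fifth of the inactives were tested at one dose only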
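Cells stably selected in G418 were plated at 2000/well, grown 16-24 hr, then given compounds in DMSO with the PDE inhibitor […] (300 uM solution added) for 30 min at 37C; cAMP was read by HTRF.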
ClpP mod – qHTS Assay for Activators of ClpP; ATP-dependent Clp protease proteolytic subunit (Bacillus subtilis (strain 168)), P80244; 340,000 tested, 1.9% active; Potency, µM (series often up to 57.5 µM), for inactives: at the top dose activity change, negative = active; AID 651965, 2013; purified B. subtilis ClpP, FRET peptide cleavage, 20 min; active = well fitted falling curve with a large enough effect; inconclusive = small, poorly fitted or top-dose-only effect; inactive = no such curve, though single readings can be large or run the other way; note: potency is the fitted concentration of half-maximal effect; the source files actives as falling curves though it sought activators and does not explain the sign; nearly all actives have a fitted effect of over 65% in size; many hits overshoot -100%
Target sequence (P80244 whole entry, looked up): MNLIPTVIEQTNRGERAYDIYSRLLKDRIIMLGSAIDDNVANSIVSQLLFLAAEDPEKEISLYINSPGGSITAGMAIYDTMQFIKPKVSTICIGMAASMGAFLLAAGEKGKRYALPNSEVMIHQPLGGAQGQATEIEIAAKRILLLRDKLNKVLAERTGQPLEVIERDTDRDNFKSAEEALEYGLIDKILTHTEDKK
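Buffer: 100 mM Tris/HCl pH8, 100 mM KCl, 0.05% low protease BSA, 2.5% glycerol, 0.01% Tween-20. ClpP 10 microg/mL final; 20 min RT; delta FRET normalized to ADEP and DMSO controls.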
gsp antagonist – antagonizes gsp, the McCune-Albright syndrome mutation; AID 624288; gsp-mutant cells, cAMP HTRF, 30 min; control for the full effect not named in the record; Potency, µM (series often up to 76.9 µM), for the others: top-dose activity change, negative = inhibition, hits mostly inhibitors; 340,000 tested, 0.4% active; active = falling curve of any shape with a large fitted effect; inconclusive = falling curve, mostly with a smaller effect; inactive = flat or rising curve; cell line not stated here;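 note: intracellular cAMP measured with PDE inhibitor Ro 20-1724 present during compound exposure; potency is the fitted concentration of half-maximal effect; % is set by controls: 0 for no effect and ±100 for the full control effect; nearly all actives have a fitted effect of over 65% in size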
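Measurement of cellular cAMP by homogeneous time-resolved fluorescence following a 30 min compound exposure at 37C. The PDE inhibitor […] was present throughout; the assay buffer was DPBS with 0.05% BSA and 0.005% Tween 20.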
CtBP-E1A inh – CtBP/E1A binding inhibition. AlphaScreen GST-E1A/His-CtBP binding, 1536-well; stronger effect = lower value; control for the full effect not named in the record. activity change, % (test concentration not listed). 340,000 tested, 0.49% active. AID 651724; in the data active means activity change below about -65%; inconclusive means about -30% to -65%; inactive means above about -30%; note: % is set by controls: 0 for no effect and ±100 for the full control effect; compound concentration not given in the record
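AlphaScreen with 125 nM GST-E1A and 125 nM His-CtBP (5X stocks) in Tris pH 8.0, 300 mM NaCl, BSA, Tween 20, TCEP. Compounds preincubated 2 h at 37 deg C, then glutathione donor/nickel acceptor beads added for 1 h at 37 deg C in dark.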
TRPV1 PAM – human TRPV1 potentiation | Q8NER1 | TRPV1-expressing cells, Fluo-8 calcium influx, capsaicin EC20 potentiation; host cell line not named in the record; control for the full effect not named in the record | potentiation, % at 8.33 µM | 320,000 tested, 0.02% active; active means potentiation above 80%; inconclusive means 30% to 80%; inactive means below 30%; note: 0% is about no effect
Target sequence (Q8NER1 whole entry, looked up): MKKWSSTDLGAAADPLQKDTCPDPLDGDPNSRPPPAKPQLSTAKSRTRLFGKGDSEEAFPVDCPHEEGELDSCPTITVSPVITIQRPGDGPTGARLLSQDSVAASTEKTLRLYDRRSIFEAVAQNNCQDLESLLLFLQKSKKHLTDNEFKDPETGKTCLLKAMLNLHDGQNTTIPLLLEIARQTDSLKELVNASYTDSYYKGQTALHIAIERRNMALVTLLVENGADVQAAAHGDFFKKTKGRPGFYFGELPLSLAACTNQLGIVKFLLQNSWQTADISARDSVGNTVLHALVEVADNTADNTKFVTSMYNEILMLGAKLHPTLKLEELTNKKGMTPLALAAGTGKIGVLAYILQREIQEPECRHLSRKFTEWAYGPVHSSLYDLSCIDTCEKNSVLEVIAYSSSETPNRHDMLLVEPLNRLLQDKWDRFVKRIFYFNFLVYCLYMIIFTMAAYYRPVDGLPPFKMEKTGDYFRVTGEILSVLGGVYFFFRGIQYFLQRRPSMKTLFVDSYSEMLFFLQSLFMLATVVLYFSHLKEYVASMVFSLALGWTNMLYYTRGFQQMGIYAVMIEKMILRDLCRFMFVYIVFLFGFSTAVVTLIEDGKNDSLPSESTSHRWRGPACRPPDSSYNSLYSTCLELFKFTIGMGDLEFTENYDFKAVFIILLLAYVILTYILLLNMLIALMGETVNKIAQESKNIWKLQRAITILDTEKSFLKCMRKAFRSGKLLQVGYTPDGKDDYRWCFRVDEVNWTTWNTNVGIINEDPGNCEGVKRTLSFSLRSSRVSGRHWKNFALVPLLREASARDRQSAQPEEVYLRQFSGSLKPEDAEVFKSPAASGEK
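TRPV1-expressing cells were cultured overnight at 35.5C and loaded with Fluo-8 calcium dye for 40 to 90 min at room temperature. After a 10 s baseline, compound was added and calcium influx was read kinetically for 3 min (ex 480/em 520 nm).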
Sfp inh – inhibitors of Bacillus subtilis Sfp phosphopantetheinyl transferase. AID 1490. 310,000 tested, 3.5% active. Biochemical Sfp PPTase activity, qHTS. Q9F4F7. Potency, µM, for the others: max response, negative = inhibition, hits mostly inhibitors; active = well fitted inhibition curve with a large enough effect; inconclusive = small, poorly fitted or top-dose-only effect, or another doubt; inactive = no such curve, though single readings can be large or run the other way;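 note: the enzyme is Sfp with the accession as filed and its product quenches rhodamine fluorescence; potency is the fitted concentration of half-maximal effect; 0% = enzyme reaction without inhibitor and -100% = no enzyme wells; top concentration of the series not given in the record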
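Step 1, compound plus 15 nM Sfp-PPTase, 15 min, room temperature. Step 2, add rhodamine-CoA (5 uM) and BHQ-2-YbbR (12.5 uM). Step 3, read 525/598 nm fluorescence at 0 and 30 min.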
Active calls of the source: *; u = inconclusive; x = no result given; & = joins results of further samples; [ ] = remark or other dose.

SMILES	Menin-MLL FL inh	gsp ag	ClpP mod	gsp antagonist	CtBP-E1A inh	TRPV1 PAM	Sfp inh
CCOC(=O)c1cc(NC(=O)CC(C)(C)CC(=O)O)ccc1N1CCCCC1	1.4	0%	x	32µM*	0	14	15%
COc1ccc(OC)c(NC(=O)Cn2cnc3c(cnn3-c3ccccc3)c2=O)c1	-0.4	9%	-0.8%	-7%	-12	7	5%
CSc1nnc(-c2ccc(S(=O)(=O)N3CCOCC3)cc2)n1C	6.2	-23%[15.4 µM]	x	0%	-9	1	16%
COc1ccccc1C(O)P(=O)(OC(C)C)c1ccc(N(C)C)cc1 (stereo not drawn)	-0.4	7%	-3.7%	4%	1	-12	-3%
O=C(COc1ccc(F)c(Cl)c1)N1CCCCCCC1	-6.8	-37%[inhibitor]	x	-4%	13	-45	10%
COc1ccccc1NC(=O)CNC(=O)Cn1c(C)cc2ccccc2c1=O	-3.1	9%	x	3%	-25	28	-3%
COc1ccc(CNC(=S)N2CCN(Cc3ccccc3)CC2)cc1	3.6	-2%	-4.8%	4%	x	-20	-23%
Nn1c(SCC(=O)NC2CCCCC2)nnc1C1CC1	2.9	1%	0.5%	12%	-4	4	-17%
COc1ccc(NC(=O)Nc2cc(NC(=O)Nc3ccc(OC)cc3)c(C)nc2C)cc1	2.6	8%	-10%	2%	4	2	-10%
O=C1SC(c2ccccc2)=C/C1=C\N1CCCCC1	15	-16%	-2.0%	-34%	-16	x	u
COc1ccc2c(c1)CCCN2C(N)=Nc1ccc(Cl)cc1	-5.7	-7%[15.4 µM]	x	7%	-8	-6	14%
Cc1ccc(-n2nc(CN3CCOCC3)c(-c3ccccc3)c2N)c(C)c1	6.9	-1%[15.4 µM]	-2.9%	6%	-23	-18	1%
O=C(CN1C(=O)NC2(CCCCCC2)C1=O)N1CCN(S(=O)(=O)c2ccc(Cl)cc2)CC1	-5.4	10%	0.4%	-11%	-7	6	17%
COC/C=C/C1=CC2=CC(=O)C(C)(OC(=O)c3cnc4ccccc4n3)C(=O)C2=CN1Cc1ccc(OC)cc1 (stereo not drawn)	0.8[11.7 µM]	x	1.0%	-13%	1	8	1%&-29%
COc1ccc(OC)c(/C=N/NC(=O)Cc2nc3ccccc3[nH]2)c1	8.1	30%	6.9%	6%	-12	-4	10%
CNC(=S)NNC(=O)c1ccc2c(c1)OCO2	-2.6	-2%	5.7%	4%	x	-4	13%
CCOC(=O)c1nn(-c2ccc(C)cc2)cc1C(=O)c1ccccc1	4.7	-12%	-4.3%	-23%	1	-5	-10%
Cc1ccc(OCCCC(=O)Nc2ccc(S(N)(=O)=O)cc2)cc1	-0.3	-8%[15.4 µM]	x	x	-12	0	-1%
O=[N+]([O-])c1ccc(NCCCO)c(C(F)(F)F)c1	0.2	5%	-0.9%	-1%	11	4	5%
Cc1cc(C)cc(NC(=O)CSCc2nc3c(nnn3Cc3ccc(F)cc3)c(=O)[nH]2)c1	x	-6%	-0.6%	0%	-1	x	x
CN(CC(=O)Nc1ccccc1Br)C(=O)c1ccc2c(=O)n3c(nc2c1)CCC3	x	24%	-0.8%	3%	4	7	x
CN1C(c2ccccc2)=NO[C@]1(C)c1ccccc1	x	10%[15.4 µM]	x	10%	1	x	x
Cc1cc(NC(=O)CCC(=O)N(CC(=O)NC2CCCC2)c2ccccc2)no1	0.6	-19%	-0.1%	-7%	6	-10	13%
COc1ccc(CCNC(=O)c2cc(S(=O)(=O)N(C)C)ccc2N2CCCC2)cc1OC	x	-31%[inhibitor]	-1.7%	0%	2	5	-5%
CCN(CC)S(=O)(=O)c1ccc(N2CCOCC2)c(NC(=O)C(=O)c2c(-c3ccccc3)cc3ccccn23)c1	3.6	7%	-0.6%	u	-23	6	1%
COc1ccc(Cc2nnc(NC(=O)C3CC(=O)N(c4ccc(OC)cc4)C3)s2)cc1 (stereo not drawn)	13	0%[15.4 µM]	x	0%	-9	26	11%
Cc1ccc(/C=N/N2CCN(Cc3cccc4ccccc34)CC2)o1	-1.2	12%	-1.3%	-5%	-20	-4	u
O=C1NCCCC1C(=O)NCCN1C(=O)CCC1=O (stereo not drawn)	-0.7	-39%	-1.7%	10%	-6	-13	7%
CCOc1ccccc1C(=O)N[C@H](C(=O)OCc1cc([N+](=O)[O-])cc2c1OCOC2)C(C)C	5.1	0%[15.4 µM]	2.3%	u	-4	-8	-6%
Clc1ccc(-c2cc3ccccc3[nH]2)cc1	4.0	1%[15.4 µM]	-0.8%	5%	4	8	7%
NS(=O)(=O)c1ccc(-c2ccc(/C=C3\C(=O)Nc4cc(Cl)ccc43)o2)cc1	-2.7	-7%	-19%	0%	u	-3	u
Cn1c(CC(=O)Nc2ccc(Cl)c(Cl)c2)nnc1SCC(=O)NCc1ccccc1	-0.7	-6%[15.4 µM]	x	-5%	0	8	-7%
CCOc1ccc(N(CC(=O)Nc2ccc(C)cc2)S(C)(=O)=O)cc1	1.3	-6%[15.4 µM]	-0.6%	9%	1	-4	0%
CN1C(=O)[C@@H]2[C@@H]3C[C@@H]([C@H]4ON=C(c5ccccc5OCC#N)[C@@H]34)[C@@H]2C1=O	-2.8	-5%[15.4 µM]	x	0%	8	12	18%
O=C(OCC(=O)N1CCN(c2ccccc2)CC1)c1cccc(Cl)c1	2.4	19%	-0.5%	0%	-16	26	1%
Cc1csc(=Nc2cccnc2)n1CC1CCCCC1	7.1	-1%[15.4 µM]	-3.8%	3%	-1	-18	-11%
CN1CCC(CC(C(=O)N2CCCC2)(c2ccccc2)c2ccccc2)C1 (stereo not drawn)	x	u	x	9%	0	x	x
CSc1ccccc1N1CCN(C(=O)Nc2ccc3c(c2)NC(=O)CO3)CC1	4.9	-27%	-0.2%	-24%	-4	-3	11%
O=C1CSC(c2ccc(F)c(F)c2)N1c1ccccc1F (stereo not drawn)	-2.6	u	-2.2%	2%	-14	1	20%
O=C(NNC(=O)c1nn(-c2ccc(F)cc2)ccc1=O)c1ccccc1Cl	2.2	0%	x	3%	-11	-4	7%
OC[C@H]1O[C@H](OC[C@H]2OC(O)[C@H](O)[C@@H](O)[C@@H]2O)[C@H](O)[C@@H](O)[C@@H]1O (stereo partly drawn)	x	x	-1.1%	7%	3	6	x
Cn1cc(S(=O)(=O)N2CCN(Cc3ccccc3)CC2)c(=O)n(C)c1=O	-2.0	-21%	-4.2%	6%	0	0	15%
COc1cc(/C=N/NC(=O)COc2cc(C)cc(C)c2)ccc1OS(=O)(=O)c1ccc(C)cc1	0.1	2%	-1.3%	-4%	5	17	16%
Cc1cc(C)c(NC(=O)CN2CCC(NC(=O)NC3CCCCC3)CC2)c(C)c1	1.0	x	x	x	x	-14	1%
COCCn1c(N)c(N(Cc2ccccc2)C(=O)COc2ccccc2F)c(=O)[nH]c1=O	x	-3%	-3.7%	7%	x	3	x
CC1CCN(C(=O)COc2coc(CN3CCc4ccccc43)cc2=O)CC1	x	0%	u	-2%	-14	12	x
COc1ccc(N2CCN(C(=O)CNC(=O)Cc3ccccc3)CC2)cc1	2.5	0%	-6.7%	3%	-4	-2	9%
Cc1onc(C(=O)N2CCOCC2)c1[N+](=O)[O-]	-4.9	-46%[inhibitor]	-0.4%	0%	x	8	19%
COC(=O)C[C@H]1c2cc(C(F)(F)F)ccc2S(=O)(=O)N1C(C)(C)C	x	5%	0.2%&0.9%	-6%	2	x	x
O=c1cc(C(F)(F)F)nc(SCc2cccnc2)[nH]1	-0.1	9%	1.2%	u	x	18	22%
O=C(COC(=O)c1cccc(S(=O)(=O)Nc2ccc(F)cc2)c1)NCCN1C(=O)CSC1=O	x	15%[15.4 µM]	x	-5%	3	-4	x
Cc1ccccc1NC(=S)N1CCCC(c2nc3ccccc3[nH]2)C1 (stereo not drawn)	-3.1	-4%[15.4 µM]	x	x	-10	-5	25%
COC(=O)c1ccc(C(=O)N(C)C2CCCN(Cc3ccccc3F)C2)cc1 (stereo not drawn)	-5.1	21%	2.2%	0%	7	11	8%
O=C(O)/C=C/C(=O)NNc1ccc([N+](=O)[O-])cc1	14	-12%[15.4 µM]	x	-1%	1	1	-26%
CC(=O)Nc1cccc(OC(=O)COc2ccc(Br)cc2)c1	-0.7	-1%	1.5%	0%	x	-3	-4%
CCOC(=O)CN1C(=O)NC2NC(=O)NC21 (stereo not drawn)	1.4	u	0.2%	2%	6	-1	4%
CCN(CC)S(=O)(=O)c1ccc(O)c(NC(=O)c2cc(-c3cc(OC)c(OC)c(OC)c3)nc3ccccc23)c1	1.6	u	x	35µM*	-4	-7	45µM*
O=C(CSc1nnc(-c2ccccc2)o1)N1CCN(c2ccccc2)CC1	-1.6	u	-3.2%	18%	5	-9	-9%
O=C(Nc1ccc(Cc2ccncc2)cc1)c1cc(F)c(F)cc1Cl	0.9	12%[15.4 µM]	x	6%	-3	4	28%
Cc1ccc(S(=O)(=O)NCCSCc2ccccc2)cc1	0.7	-27%	-2.0%	2%	4	-10	-11%
(continued)
SMILES	Menin-MLL FL inh	gsp ag	ClpP mod	gsp antagonist	CtBP-E1A inh	TRPV1 PAM	Sfp inh
O=C(Nc1ccc(Br)cc1)N1CCCCC1	-0.6	9%[15.4 µM]	-0.7%	2%	3	7	15%
CCOC(=O)N1C2C=C(C)[C@@H]2[C@@H]2CC(=O)N21 (stereo partly drawn)	1.5	-12%	1.8%	15%	2	-10	-17%
Cc1ccc(N/C=C/C(=O)c2ccccc2)cc1Br	5.8	0%	-0.6%	1%	x	4	11%
COc1ccc(OC)c(-c2csc(NC(=O)c3ccc(F)cc3)n2)c1	0.4	6%	-27%	2%	x	-17	-28%
CCNC(=O)C1(c2ccccc2)CCCC1	-8.1	12%	-2.0%	0%	-1	9	12%
CC(=O)c1sc(=S)n(Cc2ccccc2)c1C	3.5	9%	0.1%	7%	5	-7	9%
CC(C)C(=O)Nc1c(C(=O)N2CCN(c3ncccn3)CC2)oc2ccccc12	u	-1%	-9.2%	5%	3	-3	13%

Screens: PubChem BioAssay, National Center for Advancing Translational Sciences (NCATS)
